# Screening data deposited in PubChem BioAssay by National Center for Advancing Translational Sciences (NCATS).
# RE007 growth inh – less growth of the S. pombe RE007 Vpr strain; S. pombe RE007 Vpr strain, BacTiter-Glo ATP luminescence, 24 h; control for the full effect not named in the record; Potency, µM (highest dose often 92.2 µM), without a hit: at the highest dose activity change, negative = less growth; actives 0.21% (n = 360,000); active = well fitted falling curve with a large enough effect; inconclusive = small, poorly fitted or top-dose-only effect; inactive = no such curve, though single readings can be large or run the other way;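 further: on the % scale 0 is the no-effect control and ±100 the full control effect; nearly all actives have a fitted effect of over 50% in size; the assay follows cell death caused by Vpr and the record does not say whether a fall means rescue or toxicity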
#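 Fission yeast RE007 carrying one integrated HIV-1 vpr copy, seeded at OD 0.01 in PMG+AL medium with 23 nL pinned compound. Grown 24 h at 30 degrees; viability read by BacTiter-Glo luminescence after 5 min.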
# SARS PLpro yeast – inhibitors of SARS-CoV papain-like protease in yeast; Potency, µM (series often up to 32.9 µM), for inactives: top-dose activity, positive = growth rescue; actives 0.19% (n = 330,000); AID 485353; S. cerevisiae expressing SARS-CoV PLpro, growth rescue; control for the full effect not named in the record; active means well fitted rising curve with a large enough effect; inconclusive means small, poorly fitted or top-dose-only effect; inactive means no such curve, though single readings can be large or run the other way; further: 0% is about no effect; nearly all actives have a fitted effect of over 55% in size; growth read by luminescence after 48 h
# StopGo reporter – lowers the luciferase signal of an FMDV 2A StopGo reporter | AID 1159524 | human cells with a luciferase reporter of 2A StopGo recoding; control for the full effect not named in the record | Potency, µM (top dose mostly 57.9 µM), for the others: at the highest dose signal change, negative = less light | actives 1.2% (n = 410,000); active = well fitted falling curve with a large enough effect; inconclusive = small, poorly fitted or top-dose-only effect; inactive = no such curve, though single readings can be large or run the other way; tested in HEK293T cells; further: on the % scale 0 is the no-effect control and ±100 the full control effect; nearly all actives have a fitted effect of over 45% in size; luciferase light after 4 h
# Active calls of the source: *; u = inconclusive; [ ] = another dose, or the depositor's remark. Potency means the concentration at half of the fitted maximal effect. This is a subset, so the mix of outcomes need not match the whole.
SMILES,RE007 growth inh,SARS PLpro yeast,StopGo reporter
O=C(COC(=O)c1ccc(S(=O)(=O)N2CCOCC2)cc1)NCc1ccccc1,u,1%,-19%
CCOC(=O)C1=C(COC(=O)CCOc2ccc(OCC)cc2)NC(=O)NC1C (stereo not drawn),2%,1%,-4%
O=C(CSc1nnc(Nc2ccccc2)s1)NCC1CCCO1 (stereo not drawn),8%,6%,-4%
O=C(CSc1nnc(C2CC2)n1-c1ccccc1)NC1CCS(=O)(=O)C1 (stereo not drawn),1%,0%,-5%
O=C1[C@H]2[C@@H](c3ccc(F)cc3)N3C(=O)N(c4cccc(F)c4)C(=O)[C@@]3(Cc3ccccc3)[C@H]2C(=O)N1C1CCCCC1,-1%,-11%,-3%
CC[C@H](C)[C@@H](C(=O)NCCCCCCCCCCC(=O)N1CCN(C(=O)OC(C)(C)C)CC1)n1cc(CCCCCNC(=O)OC(C)(C)C)nn1,-19%,-3%,u
COc1ccc(C(=O)COC(=O)/C=C/c2ccccc2)c(OC)c1,-13%,0%,12%
O=c1cc(-c2ccccc2)cc(-c2ccccc2)n1CCO,14%,6%,0%
CCOC(=O)[C@H]1[C@H]2COc3ccccc3[C@@H]2N2C(=O)CNC(=O)[C@@]12C,10%,1%,-7%
CC1CCCC(NC(=O)CCNS(=O)(=O)c2ccc(Br)cc2)C1C (stereo not drawn),1%,-7%,-21%
C1=C[C@@H]2CCN(Cc3ccccc3)Cc3cccc(c32)C1,-17%,0%,-22%
CC(/C=N/NC(=O)c1ccncc1)=C\c1ccco1,-1%,2%,18%
CCOc1ccccc1NC(=O)COC(=O)c1ccc2ccccc2n1,6%,6%,-15%
CC(C)(C)OC(=O)NCCCCCNC(=O)c1nc[nH]c1C(=O)NCC(=O)OCc1ccccc1,-2%,6%,u
CCCCN(C)C(=O)c1cc2cc3cc(OC)ccc3nc2o1,-3%,-6%,49%[activator]
Fc1cccc(Nc2ncnc3[nH]ncc23)c1,-10%,3%,-19%
CCc1cc2c(SCC(=O)N(CC)c3c(N)n(Cc4ccccc4)c(=O)[nH]c3=O)ncnc2s1,-1%,0%,-9%
O=C(CSc1ccc(S(=O)(=O)N2CCCCC2)cn1)Nc1ccccc1Br,8%,2%,-29%
COc1ccc([C@H]2CC(=O)C=C(c3c(OC)cccc3OC)C2)cc1,6%,1%,9%
CN(C)CCCN(Cc1ccccc1)C(=S)Nc1ccc(SC(F)F)cc1,16%,-3%,-4%

# The list goes on, overlapping the part above by 6 compounds.
SMILES,RE007 growth inh,SARS PLpro yeast,StopGo reporter
CCCCN(C)C(=O)c1cc2cc3cc(OC)ccc3nc2o1,-3%,-6%,49%[activator]
Fc1cccc(Nc2ncnc3[nH]ncc23)c1,-10%,3%,-19%
CCc1cc2c(SCC(=O)N(CC)c3c(N)n(Cc4ccccc4)c(=O)[nH]c3=O)ncnc2s1,-1%,0%,-9%
O=C(CSc1ccc(S(=O)(=O)N2CCCCC2)cn1)Nc1ccccc1Br,8%,2%,-29%
COc1ccc([C@H]2CC(=O)C=C(c3c(OC)cccc3OC)C2)cc1,6%,1%,9%
CN(C)CCCN(Cc1ccccc1)C(=S)Nc1ccc(SC(F)F)cc1,16%,-3%,-4%
O=C(O)CCSCCCN1C(=O)c2cccc3cccc(c23)C1=O,19%,1%,17%
C/C(N)=C(/C#N)C(=O)CSc1nnc(C)n1-c1ccccc1,19%,2%,-7%
C[C@H](CO)N1C[C@H](C)[C@@H](CN(C)CC2CCCCC2)Oc2c(NS(=O)(=O)c3cccs3)cccc2C1=O,5%,-8%,113%[activator]
COc1cc2cnc(-c3ccccc3)cc2cc1OC,u,-3%,11%
CN(CC1COc2ccccc2O1)C(=O)c1ccc(Cl)c(S(=O)(=O)N2CCCCCC2)c1 (stereo not drawn),16%,-4%,2%
CC(Sc1nnc(Cc2ccccc2)n1C)C(=O)NC1CC1 (stereo not drawn),-6%,-1%,-20%
COc1ccc(-c2csc(NC(=O)C3CSC4(C)CCC(=O)N34)n2)cc1 (stereo not drawn),6%,6%,-2%
COc1ccc(/C=C/C(=O)c2ccc([N+](=O)[O-])o2)cc1OC,0%,3%,35µM*
Cc1ccc(C)c(OC(=O)C2CSC3(C)CCC(=O)N23)c1C (stereo not drawn),-12%,-4%,-15%
CN(C)c1cncc(C(=O)O)c1,5%,1%,-4%
CCCCn1c(N)c(N(CCOC)C(=O)CN(C)CC(=O)Nc2ccc(Cl)c(Cl)c2)c(=O)[nH]c1=O,-5%,6%,-28%
Cc1ccc(C)c(OCCC(=O)NNC(=O)c2cc(C)oc2C)c1,2%,2%,-14%
CC(OC(=O)c1ccc(NC(=O)CC#N)cc1)C(=O)NCCC1=CCCCC1 (stereo not drawn),8%,0%,-9%
CCOC(=O)Cc1cnc(NC(=O)CSc2nc3ncnc(N)c3[nH]2)s1,0%,2%,-8%
N#CCC(=O)Nc1ccc(C(=O)NCc2ccccn2)cc1,5%,2%,-1%
Nc1ncnc2c1ncn2[C@@H]1O[C@H](CN2CCCS2(=O)=O)[C@@H](O)[C@H]1O,-14%,-3%,-10%
C(=N\N(Cc1ccccc1)c1ccccc1)/c1cccnc1,3%,-11%,-23%
O=C(CSc1ccc2c(c1)OCCO2)Nc1cccnc1Cl,2%,2%,-18%
Cc1c(NC(=O)C(C)OC(=O)c2cccnc2Cl)c(=O)n(-c2ccccc2)n1C (stereo not drawn),3%,5%,-5%
COc1ccccc1-c1nnc(SCC(=O)Nc2ccc3[nH]c(=O)[nH]c3c2)n1N,-17%,3%,-5%
CC(=O)Oc1ccc(N(c2ccccc2)S(=O)(=O)c2ccc(C)cc2)cc1,-8%,4%,-8%
CC(/C=N/Nc1nc(C)cc(=O)[nH]1)=C\c1ccccc1,2%,-1%,5%
NCCCn1c(C(=O)c2cc(Cl)c(N)c(Cl)c2)c2ccccc2[n+]1[O-],-12%,3%,0%
COc1ccc([C@H]2CC(=O)C=C(c3cc(C)ccc3F)C2)cc1,5%,-6%,-18%
CC(C)(C)OC(=O)[C@H](Cc1ccccc1)NC(=O)c1nc[nH]c1C(=O)N1CCNCC1,-1%,5%,-8%
CC(C)(C)OC(=O)C[C@@H]1C/C=C\C[C@@H](CC(=O)N[C@H](CO)Cc2ccccc2)C(=O)N2CCC[C@@H]2COC1=O,2%,-1%,-13%
Nc1ncnc2c1ncn2[C@@H]1O[C@H](CNCc2ccc(-n3cccn3)cc2)[C@@H](O)[C@H]1O,-22%,-1%,-11%
OCC[C@H]1C[C@@H](O)[C@H](O)[C@@]2(OCc3ccccc32)O1,2%,3%,-6%
CCN(c1ccccc1)S(=O)(=O)c1ccc(OC)c(NC(=O)Cc2ccccc2OC)c1,0%,-6%,0%
COc1ccc(-c2ccc(SCc3cccnc3)nn2)cc1OC,1%,-7%,-15%
O=C(Nc1ccccc1)/C(=C/c1ccccc1)NC(=O)c1ccco1,-6%,-1%,-9%
COCCCNC(=O)Cn1ccc(N)nc1=O,8%,6%,-12%
COc1ccc(S(=O)(=O)N2CCCCC2)cc1NC(=O)C1CC1C (stereo not drawn),u,0%,11%
C=CCn1c(Oc2cccc(C)c2)nc2c1c(=O)n(C)c(=O)n2C,12%,2%,-8%
CCCCNC(=O)[C@@](CC)(ONc1ccccc1C(F)(F)F)c1cccc2ccccc12,-7%,-3%,-14%
c1ccc(-c2ccccc2OCCCCN2CCCCCC2)cc1,-7%,0%,-14%
CCN1C(=O)c2cccc3c(S(=O)(=O)NCc4ccccc4)ccc1c23,-1%,1%,39%[activator]
CCOC(=O)c1cn(CC(=O)Nc2cccc(Cl)c2)nn1,8%,0%,-13%
C#CCOCCOCCOCCNc1nc(N2CCN(C(=O)CCCCCCCCCCNC(=O)Cn3cc(C[C@@H](C)O)nn3)CC2)nc(N2CCN(C(=O)CCCCCCCCCCNC(=O)[C@@H]([C@H](C)O)n3cc(C)nn3)CC2)n1,1%,-22%,0%
O=C(CN1CCN(C(=O)c2cccc(S(=O)(=O)N3CCCC3)c2)CC1)Nc1ccccc1Cl,2%,1%,-9%

# Overlap with the part before: three compounds, followed by the next part.
SMILES,RE007 growth inh,SARS PLpro yeast,StopGo reporter
CCOC(=O)c1cn(CC(=O)Nc2cccc(Cl)c2)nn1,8%,0%,-13%
C#CCOCCOCCOCCNc1nc(N2CCN(C(=O)CCCCCCCCCCNC(=O)Cn3cc(C[C@@H](C)O)nn3)CC2)nc(N2CCN(C(=O)CCCCCCCCCCNC(=O)[C@@H]([C@H](C)O)n3cc(C)nn3)CC2)n1,1%,-22%,0%
O=C(CN1CCN(C(=O)c2cccc(S(=O)(=O)N3CCCC3)c2)CC1)Nc1ccccc1Cl,2%,1%,-9%
CC(OC(=O)C12CCC(=O)N1c1ccccc1S2)C(=O)Nc1cccc(Cl)c1 (stereo not drawn),5%,1%,-7%
CCOc1ccc(C(=O)CCC(=O)NN2C(=O)NC3(CCCCC3)C2=O)cc1,-12%,1%,6%
COc1ccc(-c2csc(Nc3ccccc3)[n+]2Cc2ccccc2)cc1,-6%,-8%,-17%
COc1cc(-n2c(=O)c3ccccc3n(Cc3cccc(C)c3)c2=O)cc(OC)c1OC,1%,1%,-22%
Cc1ccc(S(=O)(=O)NCCC(=O)N2CCC(C)CC2)cc1,0%,7%,-9%
COc1cc2cnc(-c3ccccc3)c(C(=O)c3ccc(F)cc3)c2cc1OC,4%,0%,-3%
O=C(O)CCCC(=O)OCCc1cc2ccccc2c(=O)o1,-3%,9%,-4%
COc1cc2cnc(-c3ccccc3F)cc2cc1OC,u,-9%,9%
O=C(CSc1ccsc1[N+](=O)[O-])NCc1ccco1,-10%,-2%,-1%
O=C(c1cccc(S(=O)(=O)NCc2ccccc2)c1)N1CCN(c2ccccc2)CC1,1%,-7%,4%
COC(=O)C1=C(c2ccccc2OCc2ccccc2)C[C@@H]2CC[C@H]1N2C(=O)NCc1ccc(N(C)C)cc1,-5%,5%,-18%
CN(C)C1=NCCN1CCc1ccc(F)cc1,-28%,-8%,-26%
C=CC[C@@H](Cc1ccc(F)cc1)C(=O)OC[C@@H]1CCCN1C(=O)[C@H](CC=C)CC(=O)N(CCO)Cc1ccccc1,-8%,1%,-19%
O=C(C[C@H]1C/C=C/CC[C@@H](Cc2ccc(F)cc2)C(=O)O[C@@H](c2ccccc2)CNC1=O)NCCO,3%,3%,-15%
O=C(Nc1ccccc1N1CCCCC1)C1=COCCO1,-3%,-8%,-23%
COc1ccc2c(c1)C(c1ccc(Cl)cc1)NC(=O)C2 (stereo not drawn),16%,2%,-11%
CC(C)(O)/C=C/C(=O)[C@](C)(O)C1[C@H](O)C[C@@]2(C)C3CC=C4C(C[C@H](O)[C@@H](O)C4(C)C)[C@]3(C)C(=O)C[C@]12C (stereo partly drawn),-3%,2%,u
Cc1noc(/C=C/c2cccs2)c1S(=O)(=O)N1CCC(C(=O)NCCCN2CCC(C)CC2)CC1,5%,5%,-13%
Cc1nc(-c2cccc(NC(=O)c3ccc(-n4cccn4)cc3)c2)cs1,2%,6%[6.58 µM],u
O=C(Cn1nnc2ccccc21)OCc1ccccc1,-3%,-1%,10%
CCCc1cc(=O)[nH]c(SCC(=O)N2c3ccccc3NC(=O)C2(C)C)n1,6%,5%,-5%
CN(CC(=O)Nc1ccccc1Cl)C(=O)CN1C(=O)NC(c2ccccc2)(c2ccccc2)C1=O,-15%,-13%,-18%
Cc1ccc(C2=NCCn3c2c2ccccc2[n+]3[O-])cc1,-11%,2%,0%
COCCN(C(=S)Nc1c(C)cc(C)cc1C)C(C)c1cccs1 (stereo not drawn),-13%,0%,16%
O=C(CN1C(=O)C(=O)c2ccccc21)NCCc1ccccc1,9%,2%,6%
COc1cccc(CNC(=O)c2cc(C3CC3)nc3c2cnn3C(C)C)c1,13%,3%,-4%
CC[C@@]1(C(=O)OC)N[C@H](CN(C)C(=O)Nc2ccc(OC)cc2)[C@@H]2C(=O)N(Cc3ccccc3)C(=O)[C@@H]21,-3%,-6%,40%[activator]
CC(C)(C)OC(=O)[C@H](Cc1ccccc1)NC(=O)c1nc[nH]c1C(=O)NC1CCNCC1,9%,4%,-19%
COc1cc(/C=C/C(=O)OCC(=O)N2c3ccccc3CC2C)cc(OC)c1OC (stereo not drawn),-9%,9%,-18%
Cc1cccc(-n2nnnc2SCC(=O)NCC2(N3CCOCC3)CCCCC2)c1C,-3%,-12%,u
CSc1ccc(Cl)c(C(=O)OCC(=O)N(C)CCC#N)c1,4%,0%,-12%
NC(=O)c1ccc(NC(=O)CSc2nnc(-c3ccc4c(c3)OCO4)o2)cc1,5%,-7%,-16%
O=C(C1CCN(S(=O)(=O)c2cccs2)CC1)N1CCN(c2ccccc2O)CC1,4%,-2%,-26%
CCN(C(=O)CSc1nc2ccccc2[nH]1)C1CCS(=O)(=O)C1 (stereo not drawn),-15%,-6%,0%
COc1ccc2oc(=O)c(/C(C)=N/Nc3ccccc3)cc2c1,-8%,1%,-14%
O=C(c1cccc(S(=O)(=O)NCc2ccc3c(c2)OCO3)c1)N1CCCC1,7%,1%,19%
